Bioassay records: PubChem BioAssay, National Center for Advancing Translational Sciences (NCATS)
A647 fluor – qHTS Assay for Spectroscopic Profiling in A647 Spectral Region | Compound fluorescence, A647 channel (570/671 nm), Tris buffer | max dye-equivalent concentration, M | 59,000 tested, under 10 active; active means above 1 µM dye equivalent; inconclusive means 0.1 to 1 µM; inactive means 0.1 µM or less;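 also: values scaled relative to a standard on each plate; highest value over a series up to 38 µM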
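Buffer was dispensed, compounds and Alexa 647 standards were pin-transferred, and plates sat 15 min at room temperature. Intensity at 570/671 nm was then converted to dye-equivalent concentration using the plate's A647 standard curve.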
A488 fluor – qHTS Assay for Spectroscopic Profiling in A488 Spectral Region | compound autofluorescence, A488 spectral region, dye equivalency; stronger effect = higher value | max dye equivalency, M | 0.1% of 59,000 active; active = above 10 nM dye equivalent; inconclusive = 1 to 10 nM; inactive = 1 nM or less; about half of its hits are not listed in these tables;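 also: highest value over a series up to 38 µM; compound alone in buffer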
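Compounds pin-transferred into 100 mM Tris buffer, pH 8.0, incubated 15 min at room temperature, then imaged with 480 nm excitation/540 nm emission filters. Fluorescence converted to Alexa 488 dye-equivalent concentration via an on-plate six-point A488 standard curve.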
TSHR agonist – qHTS Assay for Agonists of the Thyroid Stimulating Hormone Receptor. AID 926, 2007. Thyrotropin receptor (Homo sapiens), P16473. HEK293-CNG-TSHR cells (CNG channel as cAMP sensor), membrane potential dye, cAMP. Potency, µM (doses to about 57.1 µM), for inactives: at the highest dose activation, most hits filed as activators. 0.48% of 73,000 active; active = well fitted activation curve of enough size with the parental cells flat; inconclusive = any curve in the parental cells; inactive = parental cells flat and receptor cells flat or falling; also: potency is read from the fitted curve at half-maximal effect; % of control where 0% means no effect; weak receptor curves with flat parental cells got no call and are not listed
Target sequence (P16473 whole entry, looked up): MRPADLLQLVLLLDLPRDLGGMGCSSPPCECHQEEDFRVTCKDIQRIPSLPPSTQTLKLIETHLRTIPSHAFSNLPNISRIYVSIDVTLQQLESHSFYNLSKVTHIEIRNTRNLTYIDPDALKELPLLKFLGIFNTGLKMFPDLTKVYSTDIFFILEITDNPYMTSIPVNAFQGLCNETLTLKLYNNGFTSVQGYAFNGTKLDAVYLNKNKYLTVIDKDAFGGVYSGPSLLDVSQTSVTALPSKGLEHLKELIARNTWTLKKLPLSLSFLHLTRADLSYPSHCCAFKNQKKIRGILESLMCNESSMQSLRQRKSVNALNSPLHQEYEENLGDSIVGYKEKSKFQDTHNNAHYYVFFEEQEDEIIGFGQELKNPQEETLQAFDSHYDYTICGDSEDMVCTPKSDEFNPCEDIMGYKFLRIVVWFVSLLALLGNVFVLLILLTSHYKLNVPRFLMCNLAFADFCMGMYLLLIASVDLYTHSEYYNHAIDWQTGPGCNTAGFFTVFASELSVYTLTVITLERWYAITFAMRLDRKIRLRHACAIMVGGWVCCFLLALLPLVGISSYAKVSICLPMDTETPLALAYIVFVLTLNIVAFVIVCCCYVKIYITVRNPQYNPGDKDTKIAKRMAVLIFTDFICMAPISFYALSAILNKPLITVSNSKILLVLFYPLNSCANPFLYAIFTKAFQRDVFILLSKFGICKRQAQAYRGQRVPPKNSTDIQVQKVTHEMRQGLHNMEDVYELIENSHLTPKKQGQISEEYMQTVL
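HEK 293 cells stably expressing TSHR and a cAMP-gated CNG channel; parental CNG-only cells as counterscreen. Cells preloaded 60 min with membrane potential dye plus 100 uM RO 20-1724, then compound 30 min; fluorescence read at 590 nm.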
AID923 – qHTS Assay for Allosteric/Competitive Inhibitors of Caspase-1: Spectroscopic Profiling in AFC Spectral Region. compound fluorescence, AFC spectral region (405/520 nm); almost no hit is shown here. Potency, µM (highest dose often 57.5 µM), without a hit: top-dose fluorescence increase, usual class: activators. 1.1% of 75,000 active. AID 923, 2007; active = well fitted activation curve with a large enough effect; inconclusive = small, poorly fitted or top-dose-only effect;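 also: potency is read from the fitted curve at half-maximal effect; 0% is about no effect; scaled to a free AFC standard on each plate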
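Titrations up to 57 uM read every 20 sec for 3 min (405/520 nm) with 50 nM caspase 1 and 5 uM Ac-WEHD-AFC, pH 7.5 HEPES buffer. Fluorescence-vs-time intercept gave baseline, scaled against on-plate AFC standard.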
Resorufin autofl – qHTS Assay for Spectroscopic Profiling in Resorufin Spectral Region; Compound fluorescence, resorufin region 547/598 nm, buffer; stronger effect = higher value; max dye-equivalent concentration, M; 0.04% of 59,000 active; AID 588, 2007; active = above 10 nM dye equivalent; inconclusive = 1 to 10 nM; inactive = 1 nM or less; a few of its hits are not listed in these tables; also: highest value over a series up to 38 µM
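Read-out: intrinsic compound fluorescence at ex 547/em 598 nm after 15 min at RT in pH 8.0 Tris (100 mM). Values expressed as resorufin-equivalent concentration from per-plate standard series.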
An asterisk follows results filed as active; [ ] = another dose, or the depositor's remark. These rows are one share of the data; rates above refer to the full screens.

What do the screens show for `Cc1noc(C)c1COC(=O)c1ccc2c(c1)OCCO2`?
A647 fluor: 1.7e-08; A488 fluor: inactive; TSHR agonist: 18%; AID923: 0.4%; Resorufin autofl: inactive

How did CCCN(CCC)C(=O)CSc1nc2n[nH]c(C)c2c(=N)n1-c1ccc(OC)cc1 do in these assays?
A647 fluor: 8.3e-09; A488 fluor: inactive; TSHR agonist: 25%; AID923: 0.2%; Resorufin autofl: inactive

How did CCOC(=O)c1sc(NC(=O)CSc2ncccn2)c(C#N)c1C do in these assays?
A647 fluor: 1.6e-09; A488 fluor: inactive; AID923: -2.0%; Resorufin autofl: inactive

Results for CCOc1ccc(-n2c(SC)nc3c(c2=O)SCC3)cc1 ?
A647 fluor: 5.4e-09; A488 fluor: inactive; AID923: -0.2%; Resorufin autofl: inactive

How did CCc1cc(C(=O)OC)c(NC(=O)CC2NCCNC2=O)s1 (centres undefined) do in these assays?
A647 fluor: 2.4e-08; A488 fluor: inactive; TSHR agonist: 5%; AID923: 0.0%; Resorufin autofl: inactive

Results for CCSc1nnc(NC(=O)CSc2nnc(Cc3cccn3C)n2CCc2ccccc2)s1 ?
A647 fluor: 1e-09; A488 fluor: inactive; TSHR agonist: 6%; AID923: 0.4%; Resorufin autofl: inactive

What do the screens show for `CC12C=CC3(CN(Cc4ccccc4)C(=O)C3C1C(=O)NCc1ccco1)O2` (centres undefined)?
A647 fluor: 1e-09; A488 fluor: inactive; TSHR agonist: 3%; AID923: 0.4%; Resorufin autofl: inactive

How did Cc1ccnc(NC(=O)CCC2CCCCC2)c1 do in these assays?
A647 fluor: 1.5e-08; A488 fluor: inactive; TSHR agonist: inconclusive; AID923: -0.1%; Resorufin autofl: inactive

How did COc1ccc(-c2nc(SC)n(C(=O)c3ccco3)n2)cc1 do in these assays?
A647 fluor: 2.5e-09; A488 fluor: inactive; TSHR agonist: -2%; AID923: -0.5%; Resorufin autofl: inactive

Results for Cc1cccc(OCc2nnc(SCC(=O)N3CCc4ccccc43)n2C)c1 ?
A647 fluor: 4.2e-08; A488 fluor: inactive; TSHR agonist: 10%; AID923: 2.6%; Resorufin autofl: inactive

Results for CN(Cc1ccco1)C(=O)C(Cc1ccccc1)NS(=O)(=O)c1ccc2c(c1)CCC(=O)N2 (centres undefined) ?
TSHR agonist: 6%; AID923: 2.5%

What do the screens show for `Cc1csc(NC(=O)CSc2nnc(-c3ccco3)n2C)n1`?
A647 fluor: 4.5e-09; A488 fluor: inactive; TSHR agonist: -3%; AID923: 0.2%; Resorufin autofl: inactive

Results for CC(=O)Nc1ccc(N2C(=O)CC(N3CC(C)OC(C)C3)C2=O)cc1 (centres undefined) ?
A647 fluor: 2.3e-08; A488 fluor: inactive; TSHR agonist: 0%; AID923: 0.2%; Resorufin autofl: inactive

How did O=C(OCn1nnc2ccccc2c1=O)C1COc2ccccc2O1 (centres undefined) do in these assays?
A647 fluor: 1e-09; A488 fluor: inactive; TSHR agonist: -4%; AID923: -1.5%; Resorufin autofl: inactive

What do the screens show for `CCOc1ccc(C(=O)Nn2cnnc2)cc1`?
TSHR agonist: 22%; AID923: 0.6%

Results for COc1ccc(C2N=C(N)N=C(N)N2c2ccccc2)cc1OC (centres undefined) ?
A647 fluor: 2.5e-08; A488 fluor: inactive; TSHR agonist: -2%; AID923: 0.2%; Resorufin autofl: inactive

How did N#CC1=C(N)OC2=C(C(=O)CCC2)C1c1ccc(OC(=O)N2CCOCC2)cc1 (centres undefined) do in these assays?
A647 fluor: 1e-09; A488 fluor: inactive; TSHR agonist: 0%; AID923: 1.9%; Resorufin autofl: inactive

Results for COc1ccccc1-c1cc(C(F)(F)F)nc(N2CCN(c3ccc(F)cc3)CC2)n1 ?
A647 fluor: 1.8e-08; A488 fluor: inactive; TSHR agonist: 18%; AID923: 1.1%; Resorufin autofl: inactive

What do the screens show for `COc1ccc(N2C(=O)[C@@H]3Cc4ccccc4CN3C2=O)cc1`?
A647 fluor: 3.4e-08; A488 fluor: inactive; AID923: 0.4%; Resorufin autofl: inactive

How did Cc1cc(C)c2nc3c(c(C(=O)O)c2c1)CCC3 do in these assays?
A647 fluor: 1.3e-08; A488 fluor: inactive; TSHR agonist: 1%; AID923: 2.3%; Resorufin autofl: inactive

What do the screens show for `COc1ccc(OC)c(NS(=O)(=O)Cc2ccccc2)c1`?
A647 fluor: 5.2e-09; A488 fluor: inactive; TSHR agonist: 2%; AID923: -1.5%; Resorufin autofl: inactive

What do the screens show for `COc1ccc(NS(=O)(=O)c2ccc(N)c(C(=O)O)c2)cc1`?
A647 fluor: 3.6e-09; A488 fluor: inactive; TSHR agonist: 0%; AID923: -0.3%; Resorufin autofl: inactive

How did CN(CC(=O)N1CC=C(c2ccccc2)CC1)S(=O)(=O)c1cnc[nH]1 do in these assays?
A647 fluor: 2.4e-08; A488 fluor: inactive; TSHR agonist: -1%; AID923: -0.6%; Resorufin autofl: inactive

How did CC(C(=O)OCn1nnc2ccccc2c1=O)N1C(=O)c2ccccc2C1=O (centres undefined) do in these assays?
A647 fluor: 1e-09; A488 fluor: inactive; TSHR agonist: 2%; AID923: 3.3%; Resorufin autofl: inactive

What do the screens show for `Cc1cc(SCC(=O)NC(=O)NCc2ccco2)nc2c(C)cccc12`?
A647 fluor: 1.9e-08; A488 fluor: inactive; TSHR agonist: -1%[11.4 µM]; AID923: 0.3%; Resorufin autofl: inactive

Results for N#Cc1nc(-c2ccco2)oc1N1CCC(C(N)=O)CC1 ?
A647 fluor: 1e-09; A488 fluor: inactive; TSHR agonist: 4%; AID923: 2.7%; Resorufin autofl: inactive

Results for COc1cccc(N(CC(=O)NC(C)c2ccccc2)S(C)(=O)=O)c1 (centres undefined) ?
TSHR agonist: 12%[11.4 µM]; AID923: 0.2%

What do the screens show for `COCNc1nc(OCC#N)nc(N(C)C)n1`?
A647 fluor: 2.8e-09; A488 fluor: inactive; TSHR agonist: -1%; AID923: 0.6%; Resorufin autofl: inactive

What do the screens show for `Cc1c(NC(=O)CC(O)(C(F)(F)F)C(F)(F)F)c(=O)n(-c2ccccc2)n1C`?
A647 fluor: 1.1e-09; A488 fluor: inactive; TSHR agonist: -2%; AID923: -0.5%; Resorufin autofl: inactive

Results for O=C1C[C@H]2OCC=C3CN4CC[C@@]5(C(=O)O)[C@H](N1)[C@H]2[C@H]3C[C@H]45 ?
A647 fluor: 1e-09; A488 fluor: inactive; TSHR agonist: 1%[11.4 µM]; AID923: 3.4%[11.5 µM]; Resorufin autofl: inactive

Compounds above that have a CF3 group (2):
Results for COc1ccccc1-c1cc(C(F)(F)F)nc(N2CCN(c3ccc(F)cc3)CC2)n1 ?
A647 fluor: 1.8e-08; A488 fluor: inactive; TSHR agonist: 18%; AID923: 1.1%; Resorufin autofl: inactive

What do the screens show for `Cc1c(NC(=O)CC(O)(C(F)(F)F)C(F)(F)F)c(=O)n(-c2ccccc2)n1C`?
A647 fluor: 1.1e-09; A488 fluor: inactive; TSHR agonist: -2%; AID923: -0.5%; Resorufin autofl: inactive

The main list resumes with the 2 entries that preceded the break.
What do the screens show for `Cc1c(NC(=O)CC(O)(C(F)(F)F)C(F)(F)F)c(=O)n(-c2ccccc2)n1C`?
A647 fluor: 1.1e-09; A488 fluor: inactive; TSHR agonist: -2%; AID923: -0.5%; Resorufin autofl: inactive

Results for O=C1C[C@H]2OCC=C3CN4CC[C@@]5(C(=O)O)[C@H](N1)[C@H]2[C@H]3C[C@H]45 ?
A647 fluor: 1e-09; A488 fluor: inactive; TSHR agonist: 1%[11.4 µM]; AID923: 3.4%[11.5 µM]; Resorufin autofl: inactive

Results for CC(=O)Nc1ccc(S(=O)(=O)Nc2cccc(N(C)S(C)(=O)=O)c2)cc1 ?
A647 fluor: 1.4e-09; A488 fluor: inactive; TSHR agonist: 9%; AID923: -1.2%; Resorufin autofl: inactive

How did Cc1cc(O)c(C(C)(C)C)cc1Sc1cc(C(C)(C)C)c(O)cc1C do in these assays?
TSHR agonist: inconclusive; AID923: -1.4%

What do the screens show for `COC(=O)C(NC(C)=O)(Nc1nc2c(s1)CCCC2)C(F)(F)F` (centres undefined)?
A647 fluor: 1e-09; A488 fluor: inactive; Resorufin autofl: inactive

Results for O=C(O)c1ccc(COc2ccc(CO)cc2Cl)cc1 ?
A647 fluor: 3.8e-09; A488 fluor: inactive; TSHR agonist: 4%; AID923: -0.6%; Resorufin autofl: inactive

Results for Cc1ccc(S(=O)(=O)NCCn2c(C)cc3ccccc32)cc1 ?
A647 fluor: 1e-09; A488 fluor: inactive; TSHR agonist: 0%; AID923: 14%; Resorufin autofl: inactive

How did O=C1NCCCc2nc(Oc3ccccc3)sc21 do in these assays?
TSHR agonist: inconclusive; AID923: -2.7%

What do the screens show for `CCC(=O)Nc1ccc(-c2nn3c(C)nnc3s2)cc1`?
A647 fluor: 1.6e-08; A488 fluor: inactive; TSHR agonist: -1%; AID923: -2.8%; Resorufin autofl: inactive

What do the screens show for `O=C(NCCc1ccccc1)c1noc2c1CCc1ccccc1-2`?
A647 fluor: 1.7e-08; A488 fluor: inactive; TSHR agonist: -5%; AID923: 1.5%; Resorufin autofl: inactive

Results for O=C(c1ccccc1)N1CCN(c2ccc(NCc3ccc4c(c3)OCO4)cc2)CC1 ?
TSHR agonist: -12%; AID923: -0.2%

Results for O=c1oc2ccccc2n1Cn1c(=O)oc2ccccc21 ?
A647 fluor: 1.6e-09; A488 fluor: inactive; AID923: -0.4%; Resorufin autofl: inactive

How did Cc1ccc(C)c(Cn2c(=O)n(CCCC(=O)NCc3ccco3)c(=O)c3ccccc32)c1 do in these assays?
A647 fluor: 3.5e-08; A488 fluor: inactive; TSHR agonist: inconclusive; AID923: 0.5%; Resorufin autofl: inactive

How did O=C1NC(c2ccccc2)C(C(=O)c2cccs2)=C1O (centres undefined) do in these assays?
A647 fluor: 3.7e-08; A488 fluor: inactive; TSHR agonist: 8%; AID923: 1.4%; Resorufin autofl: inactive

Results for Cc1cc(C)c2[nH]c(=O)c(CN(C(=O)C3CCCO3)C3CCCC3)cc2c1 (centres undefined) ?
A647 fluor: 2.8e-09; A488 fluor: inactive; TSHR agonist: 25%; AID923: 1.1%; Resorufin autofl: inactive

How did CCOc1cc(CNCC2CCCO2)cc(Br)c1OCC(N)=O (centres undefined) do in these assays?
A647 fluor: 2.8e-09; A488 fluor: inactive; TSHR agonist: 7%; AID923: 2.8%; Resorufin autofl: inactive

Results for Cc1ccccc1-c1nnc(SCc2ccc(F)cc2)o1 ?
A647 fluor: 5.4e-09; A488 fluor: inactive; TSHR agonist: 30%; AID923: 3.4%; Resorufin autofl: inactive

How did Cc1noc(NS(=O)(=O)c2ccc(NC(=O)CSc3nc4c(cc3C#N)CCCC4)cc2)c1C do in these assays?
TSHR agonist: 3%; AID923: 1.9%

What do the screens show for `CCC(C)NC(=O)CC(c1ccc(OC)cc1)n1cccc1` (centres undefined)?
A647 fluor: 2.8e-08; A488 fluor: inactive; TSHR agonist: 21%; AID923: 0.3%; Resorufin autofl: inactive

What do the screens show for `CCCC(=O)Nc1ccc(OC[C@@H](O)CNC(C)C)c(C(C)=O)c1`?
A647 fluor: 4.1e-08; A488 fluor: inactive; TSHR agonist: -3%[25.6 µM]; AID923: -1.3%[25.7 µM]; Resorufin autofl: inactive

Results for CCC(Sc1ccc(C(=O)O)cc1)C(=O)O (centres undefined) ?
A647 fluor: 5.8e-09; A488 fluor: inactive; TSHR agonist: -4%; AID923: -1.0%; Resorufin autofl: inactive

Results for CCC(CC)C(=O)NCCc1ccc(S(N)(=O)=O)cc1 ?
A647 fluor: 1.3e-09; A488 fluor: inactive; TSHR agonist: 5%; AID923: -0.8%; Resorufin autofl: inactive

How did Cc1nnc(NC(=O)CSc2nnc(CNC(=O)c3ccccc3)n2-c2ccccc2)s1 do in these assays?
TSHR agonist: -3%; AID923: -2.2%
